# KCNQ2 inh: KCNQ2 potassium channel inhibitors, primary screen, cell-based, CHO-K1, FluxOR thallium flux, B-score (AID 2156); 1.1% of 310,000 active; 20 min; active compounds read low; only compounds with negative scores are shown here; some inactives read as strong as hits; Potassium voltage-gated channel subfamily KQT member 2 (Rattus norvegicus), O88943; B-score at 10 µM;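 active means fluorescence ratio B-score at most minus 3 library SDs, with starting brightness B-score within 2 library SDs, cut at about -5.5 in these data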
# Target sequence (O88943 whole entry, looked up): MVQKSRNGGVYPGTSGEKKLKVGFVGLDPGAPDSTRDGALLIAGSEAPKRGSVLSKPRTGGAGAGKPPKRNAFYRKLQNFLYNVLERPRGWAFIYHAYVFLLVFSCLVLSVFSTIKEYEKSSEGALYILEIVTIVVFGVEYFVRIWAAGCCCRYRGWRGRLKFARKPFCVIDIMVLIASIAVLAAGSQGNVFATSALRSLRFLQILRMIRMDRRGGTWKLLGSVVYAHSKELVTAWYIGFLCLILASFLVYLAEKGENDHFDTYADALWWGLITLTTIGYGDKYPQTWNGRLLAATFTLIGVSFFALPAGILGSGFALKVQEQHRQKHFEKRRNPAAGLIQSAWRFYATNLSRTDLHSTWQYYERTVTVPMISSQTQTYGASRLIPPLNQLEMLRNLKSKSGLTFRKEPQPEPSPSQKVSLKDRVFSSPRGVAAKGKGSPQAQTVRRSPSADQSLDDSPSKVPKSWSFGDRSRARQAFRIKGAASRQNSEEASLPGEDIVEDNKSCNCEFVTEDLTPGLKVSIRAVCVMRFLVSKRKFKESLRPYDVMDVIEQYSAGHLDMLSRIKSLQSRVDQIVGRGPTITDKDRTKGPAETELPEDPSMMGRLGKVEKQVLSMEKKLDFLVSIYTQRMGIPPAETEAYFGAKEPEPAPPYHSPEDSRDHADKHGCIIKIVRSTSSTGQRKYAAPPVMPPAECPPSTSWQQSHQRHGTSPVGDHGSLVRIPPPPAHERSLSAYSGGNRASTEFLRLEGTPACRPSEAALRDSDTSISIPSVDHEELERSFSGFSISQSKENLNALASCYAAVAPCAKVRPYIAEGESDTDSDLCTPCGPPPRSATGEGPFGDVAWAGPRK
# KCNQ2 inh baseline: recorded beside KCNQ2 inh, whose call it bears; B-score; measured here: initial fluorescence intensity artifact check;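 brightness before thallium and not channel activity; 0 = typical well and far values either way flag optical interference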
# Numbers without * were called inactive; i = inactive. Only part of the results is shown; rates above refer to the full screens.
KCNQ2 inh baseline	KCNQ2 inh	SMILES
-0.9	i	COc1cc(OC)c(/C=N/NC(=O)Cn2nc([N+](=O)[O-])cc2C)c(OC)c1
-1.9	i	COc1ccc(-c2cc(C(=O)OC(C)C(=O)Nc3c(C)n(C)n(-c4ccccc4)c3=O)c3ccccc3n2)cc1 (stereo unspecified)
0.09	i	CCc1noc2c1/C(=N\O)CC(c1ccccc1)C2 (stereo unspecified)
0.7	i	COc1cccc(-n2nnnc2SCC(=O)NCCc2ccccc2)c1
-0.6	i	CCc1c(C#N)c(SCCC(=O)Nc2cccc(OC)c2)nc2c1C(=O)CC(C)(C)C2
-0.84	i	Fc1ccccc1CN(CCN1CCOCC1)C(=S)Nc1ccccc1Cl
1.1	i	Cc1cccc(NC(=S)N/N=C/c2ccc([N+](=O)[O-])s2)c1
0.11	i	COc1ccc(-c2cn(-c3ccc(C)cc3)c(=O)n2CC(=O)Nc2cccc(F)c2)cc1
-0.25	i	Cc1ccc(CC2C(=O)N(c3ccc(C)cc3)C(=O)C2C)cc1 (stereo unspecified)
0.01	i	Cc1cccc(C)c1NC(=O)c1ccc(-c2ccc(Cl)cc2Cl)o1
0.8	i	CC(C)(C)OC(=O)NCCc1nnc(SCc2ccccc2)o1
-0.01	i	Cc1cccc(C)c1OCC(O)CNC(C)C (stereo unspecified)
-1	i	CCOC(=O)c1sc2nc3c(cc2c1N)C(=O)CC(C)(C)C3
1.6	i	Cc1ccc(C)c(S(=O)(=O)N2CCC3(CC2)OCCN3S(=O)(=O)c2cccs2)c1
-0.9	i	Cc1cc(C)cc(NC(=O)c2ccc(S(=O)(=O)C(F)F)cc2)c1
-1.6	i	CCc1nn(C(C)C(=O)N2CCN(Cc3ccccc3)CC2)c(=O)c2cc3occc3n12 (stereo unspecified)
1.8	i	Cc1ccc(S(=O)(=O)N2CCN(CCNC(=O)C(=O)Nc3ccc(F)cc3)CC2)cc1
-2.8	i	COc1ccc(S(=O)(=O)NC(C)CCc2ccccc2)cc1 (stereo unspecified)
-0.21	i	Cc1ccccc1/C(N)=N/OC(=O)/C=C/c1ccccc1
1.4	i	O=C(NCc1cccnc1)Nc1cccc(NC(=O)NCc2cccnc2)c1
0.26	i	CC(Oc1ccccc1F)C(=O)NNC(=O)CCS(=O)(=O)c1ccccc1Cl (stereo unspecified)
0.22	i	N#Cc1nc(-c2ccccc2F)oc1NCCc1ccccn1
-0.32	i	COC(=O)CSc1nc2sc3c(c2c(=O)n1C1CCCCC1)CCN(C)C3
3	i	Nc1cccc2c1C(=O)N(C(=O)c1cccc(S(=O)(=O)N3CCCCCC3)c1)C2=O
-0.75	i	O=C1C2N=NN(CC(=O)N3N=C(c4cccc5ccccc45)CC3c3ccccc3)C2C(=O)N1c1ccccc1 (stereo unspecified)
0.01	i	COc1ccc(NC(=O)C(c2ccccc2)c2ccccc2)c(OC)c1
3.5	i	COCCCNC(=O)COc1ccc(Cl)c(C)c1
-0.54	i	O=C(Nc1ccc(Cl)c(Cl)c1)NC1CCS(=O)(=O)C1 (stereo unspecified)
-0.17	i	CNc1cc(CSC)nc(SCc2ccc(Cl)c(Cl)c2)n1
-1.2	i	C=CCn1c(SCC(=O)Nc2ccc(C(=O)OCC)cc2)nnc1-c1sc(N)nc1C
-0.78	i	COc1ccc2c(c1)CCc1c(C(=O)Nc3c(C)n(C)n(-c4ccccc4)c3=O)noc1-2
0.76	i	COc1ccc(C(=O)NCCCc2ccccc2)cc1OC
0.98	i	O=C(c1ccccc1NS(=O)(=O)c1ccccc1[N+](=O)[O-])N1CCOCC1
2.5	i	O=C(N/N=C1\CCCc2c1[nH]c1ccc(Cl)cc21)c1ccncc1
0.49	i	CN(CC(=O)NCCc1ccccc1)S(=O)(=O)c1ccc(Br)s1
-1.8	i	Cc1ccc(C)c(SCC(=O)NCC(c2ccco2)N2CCCCC2)c1 (stereo unspecified)
0.01	i	Cc1coc2cc3oc(=O)c(CC(=O)N4C[C@H]5C[C@@H](C4)c4cccc(=O)n4C5)c(C)c3cc12
-1.4	i	CC(=O)c1ccc(NC(=O)C2CCCO2)cc1 (stereo unspecified)
-0.83	i	COc1ccc(CC(=O)NCCCCc2ccccc2)cc1OC
1.4	i	Cc1cc(OCn2ccc(C(=O)O)n2)ccc1Cl

# Brought forward from above: 4 compounds; new compounds follow.
KCNQ2 inh baseline	KCNQ2 inh	SMILES
0.01	i	Cc1coc2cc3oc(=O)c(CC(=O)N4C[C@H]5C[C@@H](C4)c4cccc(=O)n4C5)c(C)c3cc12
-1.4	i	CC(=O)c1ccc(NC(=O)C2CCCO2)cc1 (stereo unspecified)
-0.83	i	COc1ccc(CC(=O)NCCCCc2ccccc2)cc1OC
1.4	i	Cc1cc(OCn2ccc(C(=O)O)n2)ccc1Cl
1.4	i	Cc1ccc(NC(=S)NC2CC3CCCC(C2)N3Cc2ccco2)cc1 (stereo unspecified)
-0.15	i	O=C(Cc1cccc2ccccc12)NN1C(=O)C2C(C1=O)C1C=CC2C12CC2 (stereo unspecified)
1.5	i	CCc1cc(OCCN(C)C)ccc1Cl
0.01	i	COc1ccc(C(=O)NC2CCc3ccccc32)cc1OC1CCN(C(C)C)CC1 (stereo unspecified)
-0.01	i	O=C(Nc1ccccc1F)c1ccc(OCc2ccccc2)cc1
-0.95	i	CC1CCCC(NC(=O)CSC2CCCCC2)C1C (stereo unspecified)
-0.34	i	CCN(CC)CCNC(=S)Nc1ccc(Cl)cc1
-0.27*	-9*	Cc1cc(C)cc(NC(=O)C(OC(=O)Cn2cnc3c2c(=O)n(C)c(=O)n3C)c2ccccc2)c1 (stereo unspecified)
0.45	i	Cc1sc2ncnc(SCC(=O)NCC(C)C)c2c1C
-1	i	CCOc1cccc2cc(C(=O)NCCC3=CCCCC3)c(=O)oc12
0.75	i	CCOc1ccc(S(=O)(=O)N(CC(=O)Nc2cccnc2)c2ccc(F)cc2)cc1
-0.02	i	O=C(COc1ccc2ccccc2c1)Nc1ccc(Cc2ccncc2)cc1
0.1	i	Cc1ccc(S(=O)(=O)N2CCOCC2)cc1C(=O)Nc1nc(-c2cccnc2)cs1
-0.02	i	Cc1ccc(S(=O)(=O)N2CCN(C(=O)COC(=O)c3ccc(O)cc3)CC2)c(C)c1
0.39	i	CCOc1ccc(N=c2scc(-c3ccccc3)n2CCO)cc1
0.38	i	Cc1ncc([N+](=O)[O-])n1CC(O)CCl (stereo unspecified)
1.1	i	CCc1cccc(C)c1NC(=S)N(CCN(C)C)Cc1cccs1
1.7	i	CC(C)Oc1ccc(NC(=O)c2ccncc2)cc1
-1.5	i	COC(=O)c1ccc(C(=O)NC2CCCc3c2cnn3-c2ccccc2F)nc1 (stereo unspecified)
0.04	i	CCc1ccc(C(=O)N/N=C(\C)c2ccncc2)s1

# Quoted at random: 2 compounds from above
KCNQ2 inh baseline	KCNQ2 inh	SMILES
-0.95	i	CC1CCCC(NC(=O)CSC2CCCCC2)C1C (stereo unspecified)
-0.27*	-9*	Cc1cc(C)cc(NC(=O)C(OC(=O)Cn2cnc3c2c(=O)n(C)c(=O)n3C)c2ccccc2)c1 (stereo unspecified)

# One compound at a time, as listed above. Order of values: KCNQ2 inh baseline | KCNQ2 inh
# CC(C)Oc1ccc(NC(=O)c2ccncc2)cc1 across the screens: 1.7 | i
# CCOc1cccc2cc(C(=O)NCCC3=CCCCC3)c(=O)oc12 across the screens: -1 | i
# Cc1ccc(NC(=S)NC2CC3CCCC(C2)N3Cc2ccco2)cc1 (stereo unspecified) across the screens: 1.4 | i
# Cc1ncc([N+](=O)[O-])n1CC(O)CCl (stereo unspecified) across the screens: 0.38 | i

# (more compounds)
KCNQ2 inh baseline	KCNQ2 inh	SMILES
-1	i	COc1ccccc1OCC(=O)Nc1cc(C)ccc1NC(=O)c1ccco1
2.2	i	CCc1cccc2c(C(=O)COC(=O)c3ccc(O)cc3)c[nH]c12
0.77	i	COc1cc2c(cc1OC)CN(C(=S)Nc1ccc(OC(F)F)cc1)CC2
0.61	i	Cc1c(NC(=O)COC(=O)COc2ccc(Nc3ccccc3)cc2)c(=O)n(-c2ccccc2)n1C
-1.4	i	Cc1ccc(NC(=S)NNC(=O)C2CC2c2ccc(C)cc2)cc1 (stereo unspecified)
0.11	i	Cc1nn(-c2ccccc2)c2nc(-c3ccco3)cc(C(=O)O)c12
-1.1	i	CCCCNC(=O)c1ccc(NS(=O)(=O)c2ccccc2)cc1
0.79	i	Clc1cccc(C2CCN(Cc3nc(CC4CC4)no3)C2)c1 (stereo unspecified)
1.9	i	Cc1nn(Cc2noc(C(=O)NCc3ccc(F)cc3)n2)c(C)c1Br
0.16	i	CC(NC(=O)C(=O)N/N=C\c1ccc([N+](=O)[O-])cc1)c1ccccc1 (stereo unspecified)
1.9	i	COc1ccc(Cc2nnc(N=Nc3c(O)[nH]c4ccc(Br)cc34)[nH]c2=O)cc1
0.39	i	COc1cc(/C=N/Nc2snc(SC)c2C#N)cc(OC)c1OC
-0.41*	-5.6*	CCOc1ccc(S(=O)(=O)Nc2nc3ccccc3nc2Nc2ccc(N3CCOCC3)cc2)cc1
-0.63	i	Cc1ccc2nc(Cl)c(/C=N/Nc3nc(C)cc(C)n3)c(=O)n2c1
0.63	i	Cc1ccc(CN(CCO)CCO)cc1
-0.01	i	CCc1n[nH]c(=S)n1/N=C/c1c(O)ccc2ccccc12
0.91	i	COc1ccc(S(=O)(=O)NCC(=O)NCc2cc(=O)n(C)c(=O)n2C)cc1C
-0.06	i	Oc1ccccc1Oc1c(F)c(F)nc(N2CCCC2)c1F
0.64	i	CCOc1ccc(CNC(=O)Cn2nc(C)c3c(C)n(-c4ccc(C)cc4)nc3c2=O)cc1
-0.23	i	COc1ccc(S(=O)(=O)NNC(=O)Nc2ccc(C)cc2C)c(OC)c1
-0.09	i	CCOC(=O)Cn1nc(-c2ccccc2)nc1-c1ccccc1
1.4	i	O=C(c1ccc(OC2CCN(CCO)CC2)cc1)N1CCCC1
-0.25	i	COc1ccccc1NC(=O)Cn1c2ccc(F)cc2c2nc3n(c(=O)c21)CCS3
0.33	i	COc1ccccc1CCNC(=O)C1CCN(C(=O)/C=C/c2ccccc2)CC1
3.1	i	Cc1c(Cl)cnc(NC(=O)COC(=O)CCS(=O)(=O)c2ccccc2)c1Cl
1.8	i	O=C(c1cnn2c1NC(c1ccc(Br)cc1)CC2C(F)(F)F)N1CCN(C23CC4CC(CC(C4)C2)C3)CC1 (stereo unspecified)
-0.04	i	CC(=O)c1[nH]c(C)c(C(C)=O)c1C
0.07	i	CC1CCCN(S(=O)(=O)c2ccc(C(=O)Nc3ccccc3-c3nc4ccccc4[nH]3)cc2)C1 (stereo unspecified)
1.3	i	COc1ccc(/C=C2/SC(=O)N(CCC(=O)Nc3ccccc3C(=O)O)C2=S)cc1
2	i	COc1ccc(-n2c3c(c(=O)[nH]c2=O)C(C(F)(F)F)(C(F)(F)F)N=C(CC(C)C)N3)cc1
2.6	i	Cc1ccc(-c2nnc(-c3cccc(NC(=O)c4cccs4)c3)o2)cc1
-0.04	i	C/C(Cn1cnc([N+](=O)[O-])n1)=N\NC(=O)c1ccccc1O
-0.03	i	CC(=O)Nc1nc(NC(=O)/C=C/c2ccccc2)n(-c2ccccc2)n1
-1.1	i	O=[N+]([O-])c1ccc(NC(=S)N2CCc3ccccc32)cc1
-0.42	i	COc1ccc2c(OC)cc(=O)n(C)c2c1
0.49	i	CC1CC(C)(C)n2c(O)c(N=NC(N)=S)c3cccc1c32 (stereo unspecified)
-1.8	i	Cc1ccc(S(=O)(=O)NCC(=O)OCC(=O)N(Cc2ccccc2)C(C)(C)C)cc1
-0.39	i	O=C(O)c1cccc(NS(=O)(=O)c2cccc3cccnc23)c1
-0.29	i	O=C(N/N=C\c1cccnc1)c1ccc(Br)s1
-0.02	i	Cc1ccccc1/C=N/Nc1nc2ccccc2[nH]1

# Reformatted: results already given.
Structure	KCNQ2 inh baseline	KCNQ2 inh
O=[N+]([O-])c1ccc(NC(=S)N2CCc3ccccc32)cc1	-1.1	i
C/C(Cn1cnc([N+](=O)[O-])n1)=N\NC(=O)c1ccccc1O	-0.04	i
Cc1ccccc1/C=N/Nc1nc2ccccc2[nH]1	-0.02	i
CC(=O)Nc1nc(NC(=O)/C=C/c2ccccc2)n(-c2ccccc2)n1	-0.03	i
CCOC(=O)Cn1nc(-c2ccccc2)nc1-c1ccccc1	-0.09	i

# (listing goes on)
KCNQ2 inh baseline	KCNQ2 inh	SMILES
-1.9	i	CC(=O)Nc1cccc(C(=O)NC(C)c2ccc(-n3ccnc3)cc2)c1 (stereo unspecified)
0.21	i	CCCSc1nnc(CSc2nc(C)cc(C)n2)n1C
-0.19*	-7.7*	CCOC(=O)C(CSCC(=O)c1ccc(Cl)cc1Cl)NC(=O)OC(C)(C)C (stereo unspecified)
2.4	i	CC(OC(=O)/C=C/c1ccccc1Cl)C(=O)NC1CCCCC1C (stereo unspecified)
0.63	i	Cc1cccc(NC(=O)CSc2nc(=O)n3ccccc3n2)c1C
2.3	i	O=C(/C=C/c1cccc([N+](=O)[O-])c1)N1CCN(c2ccccn2)CC1
1.4	i	Cc1ccc2ncccc2c1NS(=O)(=O)c1ccccc1
-0.38	i	O=C(c1ccccn1)N1CCCC(N2CCN(c3ccc(F)cc3)CC2)C1 (stereo unspecified)
0.47	i	Cc1n[nH]c(C)c1S(=O)(=O)N1CCCC(C(=O)Nc2ccc3c(c2)OCCO3)C1 (stereo unspecified)
0.31	i	Nc1c(N(CCC2=CCCCC2)C(=O)c2ccco2)c(=O)[nH]c(=O)n1Cc1ccccc1
0.07	i	COc1ccc(-c2cc(C3CCN(c4ncccc4[N+](=O)[O-])CC3)[nH]n2)cc1
-0.74	i	COc1ccc(NC(=O)CCNC(=O)Cn2ccc3ccccc3c2=O)cc1OC
0.68	i	C=CCN1C=C2C(=O)C(C)(OC(=O)CCc3ccccc3)C(=O)C=C2C=C1c1ccc(C#N)cc1 (stereo unspecified)
1.3	i	Cc1cccc2sc(NC(=O)C3c4ccccc4Oc4ccccc43)nc12
2.5	i	CCC(C)(C)NC(=O)C(c1cccn1C)N(Cc1ccc(C)cc1)C(=O)Cn1nnc2ccccc21 (stereo unspecified)
1.1	i	COc1ccc(C2CC(c3c(Cl)cccc3Cl)n3nc(N)nc3N2)cc1 (stereo unspecified)

# Source: PubChem (Johns Hopkins Ion Channel Center)
